PrP 5UTR inh = suppresses PrP 5' UTR mRNA reporter expression; cell-based PrP 5' UTR mRNA reporter, plate reader; inhibition, % (concentration not given with the values); 0.35% of 340,000 active; AID 488862;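 active means every replicate at 50% or more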;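 further: 0 = median of the neutral control wells; tested in H4 reporter cells; numbers are from one replicate; inactives centre near -14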
RN4220 kill = kills Staphylococcus aureus RN4220 | S. aureus RN4220 growth, OD600, 16 h | inhibition, % (test concentration not listed) | 0.33% of 330,000 active | AID 1259311;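 active means z-score of -3 or lower and OD600 up to 0.18 on both plates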;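 further: plate controls were untreated cells for no effect and reference antibiotic for full effect; stock transfer was 100 nL into about 80 µL; one replicate is shown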
ugtP null kill = compounds lethal to S. aureus RN4220 ugtP deletion mutant; AID 1259309; 0.54% of 330,000 active; growth inhibition, % (concentration not given with the values); OD600 growth, 16 h; some inactives read as strong as hits;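 active means z-score under -3 and OD600 up to 0.15 on both plates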;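 further: plate controls were untreated wells for no effect and antibiotic for full effect; wells of about 80 µL received 100 nL stock; the first replicate is given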
Mtb hypoxia rep = Mtb hypoxia fluorescent reporter inhibition. fluorescence inhibition, % (concentration not given with the values). M. tuberculosis hypoxia-regulated fluorescent reporter, fluorescence. 0.1% of 300,000 active;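 active means 35 to 45% if threefold the growth effect, above 45% if 1.5-fold the growth effect; inactive means the rest, general growth blockers included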;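 further: wells of about 50 µL received 100 nL stock; 0% = vehicle wells and 100% = reference inhibitor wells; whole bacteria with a GFP reporter of the hypoxia response; strong numbers were not always called active; many hits fall short of the cut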
BJeLR lethal = BJeLR cell viability loss; BJeLR (HRASV12) viability, CellTiter-Glo ATP luminescence, 48 h; reference of the scale not given here; inhibition, % (test concentration not listed); AID 1554; 0.17% of 300,000 active;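 active means replicate mean above 50%; inconclusive means above 50% but judged a plate artefact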;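 further: 50 nL library stock added to about 25 µL; numbers are from one replicate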
Bead autofluor = counter-screen for toxin protease inhibitors: compound fluorescence; compound autofluorescence counterscreen, microsphere flow cytometry; active compounds read high; fluorescence intensity (test concentration not listed); 3.1% of 360,000 active; AID 624483;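 active means at least 3 SD above the mean of all compounds, about 16000 in these data; inconclusive means too few beads counted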;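 further: 100 nL of 1 mM stock went into each well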
Mtb hypoxia rep growth = second read-out of Mtb hypoxia rep, no call of its own (marks repeat the call); growth inhibition, %; measured here: M. tuberculosis growth (absorbance);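 0% = vehicle and 100% = reference antibiotic; read after six days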
* marks the source's active call; other numbers are inactive results; ? = inconclusive; . = not tested or not shown.

Structure,PrP 5UTR inh,RN4220 kill,ugtP null kill,Mtb hypoxia rep,Mtb hypoxia rep growth,BJeLR lethal,Bead autofluor
Cc1nc(NC(=O)C2CC2)sc1C(=O)Nc1ccc(Br)cc1,-28.2,1.3,4.7,-3.1,-4.5,-4.6,3890
Cc1cc(=O)oc2cc(OC(C)C(=O)NC3(C#N)CCCCC3)ccc12 (stereo not given),-15.1,-0.6,4.4,3.5,7.0,.,3881
COc1ccc(/C=N/Nc2cc(=O)n(C)c(=O)n2C)cc1OC,-10.6,.,.,.,.,2.3,2057
O=C(N/N=C/c1c[nH]c2ccccc12)c1ccc(Br)cc1,-32.8,.,.,.,.,-2.3,3107
CSc1ncccc1C(=O)OCC(=O)c1cc2ccccc2o1,-3.0,-5.5,-4.7,-2.0,11.7,9.4,8965
COc1ccc2nc(SCC(=O)NC(C)(C)C)[nH]c2c1,-23.9,4.3,-3.1,12.6,2.9,17.0,12697
Cc1cc(NC(=O)COC(=O)c2c(C)noc2C)ccc1Br,-34.6,-3.3,7.3,3.2,9.4,1.8,4730
CCC(=O)NC(C)c1cc(Cl)c2ccccc2c1O (stereo not given),-9.5,10.3,2.4,-2.2,4.9,.,3633
Cc1ccc2nc(-c3ccccc3N)[nH]c2c1,-39.9,2.4,19.8,7.5,21.2,7.7,2215
CCn1c(=O)c(C)nn2c3ccccc3nc12,-15.7,2.4,0.6,.,.,1.3,3674

Later entries
Structure,PrP 5UTR inh,RN4220 kill,ugtP null kill,Mtb hypoxia rep,Mtb hypoxia rep growth,BJeLR lethal,Bead autofluor
CNC(=O)CN(c1ccc(C(C)C)cc1)S(C)(=O)=O,-9.2,-2.5,-0.4,3.7,-3.1,-0.1,?
Cc1ccc(C2C(C#N)=C3N=C(N)c4ccccc4N3C3=C2C(=O)CCC3)cc1 (stereo not given),-6.7,-1.3,6.1,-6.6,7.1,6.5,3276
CCCC(=O)Nc1nc2c(s1)COc1ccccc1-2,-21.6,3.0,-2.2,1.3,0.8,9.1,4103
O=C(Nc1ccc(N2CCCC2)c(Cl)c1)c1ccco1,-49.4,2.1,13.3,-3.4,-3.0,1.9,9628
O=C(CN1CCC(NC(=O)c2ccccc2F)CC1)Nc1ccc2c(c1)OCCO2,-28.2,1.7,5.7,2.3,8.3,16.0,2220
COc1ccc(C2=NCC(=O)N(CC(=O)NCc3ccco3)c3sc4c(c32)CCCC4)cc1,-8.9,5.9,-3.9,2.6,-0.1,-0.9,9158
Cc1nn(Cc2ccccc2)c(Cl)c1C(=O)OC(C)C(=O)Nc1ccc(F)cc1Cl (stereo not given),-9.8,10.9,12.1,-6.5,-6.7,-2.6,2584
O=C(CCCn1cnc([N+](=O)[O-])n1)Nc1cccc(O)c1,-25.2,-2.2,9.5,9.9,3.6,0.7,3258
CCCS(=O)(=O)N1CCN(CC2CC3C=CC2C3)CC1 (stereo not given),-14.4,-2.6,7.0,.,.,.,2761
O=C(CN1c2cccc3cccc(c23)S1(=O)=O)N1CCN(c2ccccc2)CC1,-9.0,1.8,11.5,10.4,12.5,.,6405

Compound profiles (already shown). Screens in order: PrP 5UTR inh, RN4220 kill, ugtP null kill, Mtb hypoxia rep, Mtb hypoxia rep growth, BJeLR lethal, Bead autofluor
Record of COc1ccc(C2=NCC(=O)N(CC(=O)NCc3ccco3)c3sc4c(c32)CCCC4)cc1 → -8.9, 5.9, -3.9, 2.6, -0.1, -0.9, 9158
Record of O=C(CCCn1cnc([N+](=O)[O-])n1)Nc1cccc(O)c1 → -25.2, -2.2, 9.5, 9.9, 3.6, 0.7, 3258

New compounds follow.
Structure,PrP 5UTR inh,RN4220 kill,ugtP null kill,Mtb hypoxia rep,Mtb hypoxia rep growth,BJeLR lethal,Bead autofluor
Cc1ccc(NC(=O)c2sc(Cl)nc2-c2ccccc2)cc1C,-15.2,6.5,1.5,-0.4,-1.4,-9.6,2992
CC(C)c1cc(Br)ccc1OCCN1C(=O)NC(C)(C)C1=O,-31.4,3.0,1.1,-6.2,5.5,0.1,4450
Cc1ccc2nc(NC(=O)CN(C)S(=O)(=O)c3ccc(Br)s3)sc2c1,-9.5,7.8,-9.7,.,.,-7.9,2070
COc1cccc(C(=O)NCCS(=O)(=O)NC2CCCC2)c1,-29.9,0.5,4.5,-9.1,-20.3,3.4,5598
CC(=NNC(=O)c1cc(-c2ccc(Cl)s2)[nH]n1)c1ccco1,.,3.4,-18.9,0.4,5.0,.,.
CCN(C(=O)COC(=O)c1c(C)nn(-c2ccccc2)c1Cl)c1c(N)n(Cc2ccccc2)c(=O)[nH]c1=O,-9.7,1.0,2.9,1.0,2.9,.,5340
CC(=O)NC(CC(=O)Nc1ccc2c(c1)OCCO2)c1ccccc1 (stereo not given),-38.5,2.7,-3.6,11.6,11.6,3.0,3426
O=C(NCCCc1ccccc1)c1ccc(-n2cncn2)c([N+](=O)[O-])c1,-37.6,-1.0,7.8,1.8,12.3,8.5,6572
COc1ccccc1NC(=O)c1nn(C)c(C(=O)Nc2ccccc2OC)c1[N+](=O)[O-],-7.3,5.6,8.9,11.3,7.5,3.1,3868
Cc1ccc(NC(=O)CN2C(=O)NC(Cc3ccccc3)C2=O)c(Br)c1 (stereo not given),1.8,2.5,-4.6,2.9,5.4,-2.0,4689

Next section.
Structure,PrP 5UTR inh,RN4220 kill,ugtP null kill,Mtb hypoxia rep,Mtb hypoxia rep growth,BJeLR lethal,Bead autofluor
CCSc1ccccc1C(=O)NCc1ccc2c(c1)OCO2,-9.6,5.6,10.1,-0.7,7.8,-3.1,17574*
CC1N(C)c2cc(NC(=O)c3ccco3)c(P(=O)(Nc3ccc([N+](=O)[O-])cc3)N3CCOCC3)cc2C1(C)C (stereo not given),-15.6,5.6,1.1,3.4,5.9,5.2,4822
Cc1nn(-c2ccccc2)c2sc(C(=O)NCCN3CCOCC3)cc12,-14.0,-1.3,2.1,9.6,4.8,-21.8,4031
COc1ccc(NC(=O)COC(=O)c2ccco2)c([N+](=O)[O-])c1,-11.5,0.1,10.2,2.0,0.9,7.1,2446
O=C(NNC(=O)c1cc2cc(Br)ccc2oc1=O)c1ccc(O)cc1,-8.6,2.6,1.5,3.8,0.9,-15.7,2663
O=C(COC(=O)/C=C/c1cccc(Br)c1)NC1CCCCC1,1.0,1.2,-1.5,0.9,-5.0,.,4083
COc1ccccc1C(=O)COC(=O)c1cc(S(=O)(=O)N2CCCCC2)ccc1N1CCOCC1,-12.7,-0.1,-1.6,-6.5,-7.9,-6.5,6488
COc1cc(SC)ccc1C(=O)Nc1cc(C)c(OCC(=O)N2CCOCC2)c(C)c1,-23.6,1.0,2.2,0.6,6.9,-8.2,5308
CC(C)OCCCn1c(=N)c(C(N)=S)cc2c(=O)n3ccccc3nc21,-18.8,7.8,-4.0,14.2,5.0,-3.1,5395
COc1cc(C(C)=NNC(=O)CSc2nc3ccccc3[nH]2)ccc1O,.,-0.5,-0.1,15.9,3.5,.,.

(more compounds)
Structure,PrP 5UTR inh,RN4220 kill,ugtP null kill,Mtb hypoxia rep,Mtb hypoxia rep growth,BJeLR lethal,Bead autofluor
COc1ccc(S(=O)(=O)N2CCCC2C(=O)Nc2nccs2)cc1 (stereo not given),-35.1,1.3,2.3,.,.,11.7,2283
CC(=O)c1ccc(-c2ccc(-c3cc(=O)oc4c(C(C)C)ccc(C)c34)cc2)cc1,-13.6,-1.7,40.4,6.2,7.5,.,2775
CCOc1ccccc1Nc1nnc(SCC(=O)NC(Cc2c[nH]c3ccccc23)C(=O)O)s1 (stereo not given),-12.2,3.7,-1.1,2.2,-3.3,-3.0,4542
Cc1cccc(NC(=O)[C@@H]2CCCN2C(=O)OC(C)(C)C)c1C,-14.7,5.9,6.5,2.1,-13.0,-7.8,3362
O=C(CN1CCN(Cc2ccccc2)CC1)Nc1nc2ccccc2s1,-36.2,2.0,11.9,-1.1,-1.5,2.3,3954
Cc1ccc2c(c1)C(=O)C(=O)N2CCOc1ccccc1,-11.9,14.3,5.6,16.4,5.4,30.5,3415
CCN(CC)S(=O)(=O)c1ccc2oc(C(=O)N3CCCCCC3)c(C)c2c1,-2.2,6.5,-2.6,10.6,1.1,-17.3,9902
O=C(Oc1cc(=O)oc2ccccc12)c1cccnc1Cl,-0.2,0.7,2.6,-3.1,3.6,-12.4,2215
COc1cccc(-n2c(C)nc3c(cnn3-c3ccc(Cl)cc3)c2=O)c1,-7.7,2.5,0.2,6.7,12.7,6.1,4059
Cc1cc(=O)n2nc(N3CCCC(C(=O)NC(C)c4ccccc4)C3)sc2n1 (stereo not given),-15.0,3.1,5.4,17.2,21.8,2.9,3782

Next results
Structure,PrP 5UTR inh,RN4220 kill,ugtP null kill,Mtb hypoxia rep,Mtb hypoxia rep growth,BJeLR lethal,Bead autofluor
CCCCNC(=O)CSc1nnc(-c2c[nH]c3ccccc23)n1CC1CCCO1 (stereo not given),-21.7,5.6,8.3,10.9,8.2,-6.5,7876
CSc1nc(Oc2ccc(F)cc2)c2ccccc2n1,-6.6,16.9,34.8,19.1,2.8,3.4,2435
Cc1cccc(N2CCN(C(=O)c3nn(C)c4c3CS(=O)(=O)c3ccccc3-4)CC2C)c1 (stereo not given),2.5,5.6,20.4,10.2,7.1,-1.7,4474
CN(C)c1ccc(C=NNC(=O)c2ccc3nc[nH]c3c2)cc1,.,0.1,7.8,5.0,5.5,.,.
CCn1cnc2c1c(=O)n(CC(=O)NCC(F)(F)F)c(=O)n2Cc1ccccc1,-12.4,3.2,-66.2,12.6,4.3,-0.9,3124
CCOc1ccc(C(=O)NCC(c2cccs2)N(C)C)cc1OCC (stereo not given),-5.5,6.2,10.9,8.6,10.0,-1.6,2281
COc1cc(C2C3=C(CCCC3=O)Nc3c2c(C)nn3-c2cccc(C)c2)cc(OC)c1O (stereo not given),-15.5,3.4,-0.4,-2.3,2.1,-4.6,4885
CC1(c2ccc(Cl)cc2)NC(=O)N(CC(=O)NCc2ccc(F)cc2)C1=O (stereo not given),-10.4,3.6,3.4,1.9,-5.1,-1.7,3083
CCOc1ccc(N(C(C)C(=O)N2CCCCCC2)S(C)(=O)=O)cc1 (stereo not given),-28.1,3.5,3.8,1.7,-1.0,-2.8,3882
CC1CCCCN1C(=O)CSc1nc(N)nc(N)n1 (stereo not given),-6.7,4.5,5.6,3.8,-4.9,-17.9,?

(more compounds)
Structure,PrP 5UTR inh,RN4220 kill,ugtP null kill,Mtb hypoxia rep,Mtb hypoxia rep growth,BJeLR lethal,Bead autofluor
CN1C(=O)/C(=C2\SC(N3CCCCCC3)=NC2=O)c2ccccc21,-29.9,5.2,-1.9,14.5,2.3,2.8,?
COc1ccc(C(=O)OCC(=O)c2ccc(CNC(C)=O)s2)cc1,-23.9,1.1,2.3,12.9,-6.4,.,3210
NC(=O)CSc1nnnn1-c1cccc(Cl)c1,-15.6,4.3,4.5,11.2,4.5,-6.4,2144
O=C(COC(=O)CN1C(=O)NC2(CCCC2)C1=O)Nc1ccc(C(F)(F)F)cc1[N+](=O)[O-],-25.8,9.4,13.6,-9.9,4.4,-14.3,5311
O=C(NCc1ccccc1)c1ccc(S(=O)(=O)N2CCCC2)cc1,.,4.8,-2.3,8.5,3.7,-2.4,11097
COC(=O)Cn1c(C)nc2ccccc21,-28.5,14.0,-2.0,13.1,4.3,-0.5,10864
Cc1cc(=O)oc2c(N)c(O)ccc12,-11.1,6.8,-7.6,.,.,7.2,3820
c1cncc(-c2nc3ccccc3s2)c1,-16.9,-1.9,6.4,4.3,-4.5,1.9,3835
